Source: PubChem (Fisher Drug Discovery Resource Center)
NPYLR7 agonist – activates Aedes aegypti NPYLR7 receptor; activation, % at 10 µM; AID 1259423; hit rate 0.15% among 270,000; HEK293T NPYLR7/Galpha15, GCaMP6s calcium fluorescence; in the data active = activation above about 40%;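 note: 0% = vehicle and 100% = reference agonist at the receptor; some compounds past the cut are filed as inactive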
NPYLR7 agonist max-min – further read-out of NPYLR7 agonist, marked with its call; activation, %; measured here: Max-Min RFU normalised activation; some inactives read as strong as hits;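 span of the calcium signal over five minutes; 0% = vehicle and 100% = native peptide agonist; compound fluorescence can raise it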
The depositor's hits bear a star; & = joins results of further samples. Only part of the results is shown; rates above refer to the full screens.

SMILES	NPYLR7 agonist	NPYLR7 agonist max-min
COc1cc(Br)cc2c1OC1(C)CC2NC(=O)N1c1ccc(C)c(C)c1 (stereo not given)	-5	-10
CCSc1ccc(C(=O)N(C)Cc2csc(CC)n2)cn1	1	1
O=[N+]([O-])c1ccc(C=NNC(=S)Nc2ccc(Cl)cc2)o1	9	2
CCCN(Cc1nc2cc(Cl)ccc2c(=O)[nH]1)C(=O)COc1cc(C)cc(C)c1	9	10
O=c1[nH]c2cc(C(F)(F)F)ccc2n1-c1cc(C(F)(F)F)ccc1O	3	-22
CCOC(=O)CNC(=O)N(CC(=O)N(Cc1cccn1Cc1ccccc1Cl)CC(C)C)C(C)CC (stereo not given)	-1	7
CNC(=O)c1noc(CN2CCCC(N3CCCC3=O)C2)n1 (stereo not given)	5	1
CC(Cn1cncn1)NCc1c(C(=O)N2CCc3ccccc3C2)nc2ccc(Cl)cn12 (stereo not given)	5	2
Cc1cc(-c2ccccc2CO)ccc1NC(=O)c1cccnc1	2	0
CCc1c(C)nn(CC(=O)NCc2cccnc2N2CCN(C)CC2)c1C	-1	-2
COc1ccc(C)cc1-c1csc(Cn2ccc(=O)[nH]c2=O)n1	3	-2
CCNS(=O)(=O)c1ccc2c(c1)CCN2C(C)=O	4	2

An excerpt of these results, with values under each structure:
Second line of a record – NPYLR7 agonist, NPYLR7 agonist max-min
> O=c1[nH]c2cc(C(F)(F)F)ccc2n1-c1cc(C(F)(F)F)ccc1O
 : 3, -22
> CCOC(=O)CNC(=O)N(CC(=O)N(Cc1cccn1Cc1ccccc1Cl)CC(C)C)C(C)CC (stereo not given)
 : -1, 7
> CNC(=O)c1noc(CN2CCCC(N3CCCC3=O)C2)n1 (stereo not given)
 : 5, 1
> CC(Cn1cncn1)NCc1c(C(=O)N2CCc3ccccc3C2)nc2ccc(Cl)cn12 (stereo not given)
 : 5, 2
> Cc1cc(-c2ccccc2CO)ccc1NC(=O)c1cccnc1
 : 2, 0

(listing goes on)
SMILES	NPYLR7 agonist	NPYLR7 agonist max-min
COc1ccc(CCOc2nc(-c3cccc(C(F)(F)F)c3)n(-c3ccc(NC(=O)C4CCC4)cc3)n2)cc1	22	18
O=C(CN1C(=O)CCC1=O)Nc1ccc2c(c1)C(=O)N1CCCCC1CCO2 (stereo not given)	-2	-4
CCOC(=O)N1CCC(N(C)Cc2ccc3ncccc3c2)CC1	4	4
CCc1ccccc1NC(=O)Nc1cn(CC)c2ccccc12	19	11
CCOc1ccc(N2CCn3c(SCc4cc(C)ccc4C)nnc32)cc1	8	6
O=C(C=Cc1cnc2ccccc2n1)N1CCC(CCc2ccccc2)CC1	0	11
CS(=O)(=O)N1C[C@H]2CNC[C@@]2(C(=O)NC2Cc3ccccc3C2)C1	-3	-3
COCCn1cnc2cc(NC(=O)C3CCCCC3)cc(C(=O)N(C)CC3Cc4ccccc4O3)c21 (stereo not given)	-10	-13
O=C(c1csc2c1CCCC2)N1CCc2c([nH]c3ccccc23)C1c1ccccn1 (stereo not given)	17	3
N#CC1C(=N)OC2=C(C(=O)CCC2)C1c1cccc(Cl)c1 (stereo not given)	-16	-21
COc1ccc(-c2cccc(-c3cccc(NC(=O)c4cc(C)oc4C)c3)n2)cc1	-6	-7
Cc1cc(C)c2oc(-c3ccc(NC(=O)c4cccc(F)c4)cc3)nc2c1	-4	-7
CC(N)=C(C#N)C(=O)COC(=O)C=Cc1ccc(Br)o1	0	5
COc1ccc(CN2CC3C[C@@H]4CC2C[C@H](C3)C4)cc1C(=O)O	0	-1
COc1ccc(C2=NNc3nc4c5ccccc5nc(=O)n4nc3C2)cc1	-2	-4
Cc1cc(C(=O)CSc2nc(N)nc(N)n2)c(C)n1CCC1=CCCCC1	0	-1
CCOc1ccc2ccccc2c1C(=O)N1CCN(c2ncnc3c2nnn3CC)CC1	0	6
C#CCSc1nc(N)c(C#N)c(-c2cccc(Cl)c2)c1C#N	9	3
COC(=O)C1(C(=O)OC)CC1(C(=O)OC)C(=O)OC	1	-3
Cc1ccc(NC(=O)Cc2n[nH]c(=O)c3ccccc23)cc1F	-1	-3
CC(C)Nc1ccc(C(=O)NCc2ccccn2)cn1	0	0
CC1CC(OC(=O)C(C)NC(=O)OC(C)(C)C)C(=O)O1 (stereo not given)	4	2
Cc1cc(NC(=O)N(Cc2ccco2)C2CCN(C)CC2)no1	11	5
O=C(CSc1ccc2nnc(CCNC(=O)c3ccccc3)n2n1)c1ccccc1	-20	-20

As entered above.
Value for CCOc1ccc2ccccc2c1C(=O)N1CCN(c2ncnc3c2nnn3CC)CC1 under NPYLR7 agonist: 0
Value for Cc1cc(C(=O)CSc2nc(N)nc(N)n2)c(C)n1CCC1=CCCCC1 under NPYLR7 agonist: 0
Value for COc1ccc(C2=NNc3nc4c5ccccc5nc(=O)n4nc3C2)cc1 under NPYLR7 agonist max-min: -4
Value for C#CCSc1nc(N)c(C#N)c(-c2cccc(Cl)c2)c1C#N under NPYLR7 agonist: 9
Value for CC(N)=C(C#N)C(=O)COC(=O)C=Cc1ccc(Br)o1 under NPYLR7 agonist max-min: 5
Value for Cc1ccc(NC(=O)Cc2n[nH]c(=O)c3ccccc23)cc1F under NPYLR7 agonist max-min: -3
Value for CC1CC(OC(=O)C(C)NC(=O)OC(C)(C)C)C(=O)O1 (stereo not given) under NPYLR7 agonist: 4

(more compounds)
SMILES	NPYLR7 agonist	NPYLR7 agonist max-min
CCn1c(CC2CCN(C(=O)c3cn4cc(C)ccc4n3)CC2)n[nH]c1=O	8	5
Nc1nc(Cl)nc2c1ncn2[C@@H]1O[C@H](CO)[C@H](O)C1O (stereo not given in full)	97*	78*
CCCS(=O)(=O)N1CCCC(C(=O)NCc2ccc(Cn3ccnc3)cc2)C1 (stereo not given)	2	0
CCNC(=O)c1coc(CN(Cc2ccccc2)Cc2ccc(F)cc2F)n1	19	33
COC(=O)c1sccc1NC(=O)c1nn(Cc2ccccc2)c(=O)c2ccccc12	-1	7
NC(=O)Cn1cc(Br)ccc1=O	0	1
CCOCC(=O)NCc1nnnn1C1CCCCC1	4	2
OCc1ccc(-c2nccn2-c2ccc(Oc3ccccc3)nc2)o1	2	1
Cc1oc(-c2cc3c(cc2Cl)OCO3)nc1CN1CCN(c2ncccn2)CC1	18	7
COc1ccc(C(=O)N2CCN(C(C(=O)NCc3cccc(F)c3)C3CCCC3)CC2)cc1OC (stereo not given)	-22	-13
CS(=O)(=O)c1ccc(-c2ccccc2C(=O)N2CCN(C(=O)C3c4ccccc4Oc4ccccc43)CC2)cc1	-9	-14
Cc1ccc(Cl)cc1S(=O)(=O)NCCc1ccc(N2CCCC2)cc1	-7	-9
Cc1ccc(Nc2nc(NCc3ccco3)nc3[nH]ncc23)cc1	1	-2
CCOC(=O)CSCC(=O)Nc1nnc(-c2cccc([N+](=O)[O-])c2)s1	-3	-3
CCCc1ccccc1N1C(=O)CSC1c1cccc(NC(=O)Cc2ccc(OC)cc2)c1 (stereo not given)	2	18
CC(=O)c1ccc2c(c1)N(Cc1ccc(Cl)cc1)C(=O)C(C)S2 (stereo not given)	3	1
CN(c1ccccc1)c1ccccc1NC(=O)CN1CSCC1=O	1	1
Cc1ccccc1CN1CCC(CN(CC2CCCO2)C2CCOCC2)CC1 (stereo not given)	8	8
Cc1ccccc1C1CCCN1C(=O)c1cccc(NCC(=O)O)c1 (stereo not given)	0	-2
O=S(=O)(c1ccc(Cl)cc1)N1CCCC(OCc2ccccc2)C1 (stereo not given)	-4	0
CSc1ccc(C(=O)N2CCc3c(cnc(C)c3CNC(=O)/C=C/c3ccccc3)C2)cc1	0	-7
COCCn1c(SCC(=O)Nc2cc(C(C)(C)C)nn2C)nc(C)c1C	-1	-2
O=C(CCc1ncc(-c2ccccc2Cl)o1)NCc1ccc(F)cc1	4	2
CCCc1nc2ccc(NC(=O)c3ccccc3)cn2n1	-3	-9
COc1ccc(S(=O)(=O)NCC2CCCO2)cc1N1CCN(S(=O)(=O)c2ccc(F)cc2F)CC1 (stereo not given)	4	4
Fc1cccc(CN(CCN2CCOCC2)Cc2cccn2Cc2cccc(C(F)(F)F)c2)c1	0	4
Cc1ccc(Cl)c2sc(NCCCn3ccnc3)nc12	3	1
Cc1cc(NC(=O)C(C)(C)C)nc2c1c(=O)oc1ccccc12	-1	-3
Cc1cc(N2CCN(C(=O)Cn3nnnc3CN3CCCC3)CC2)cc(C)n1	-4	-7
Cc1ccccc1-c1cc(O)c2c(c1)CN(Cc1cccnc1)CCO2	-1	-1
CCC(c1nc(CC2CCN(C)CC2)no1)n1cccn1 (stereo not given)	5	3
COc1ccc(-c2nn(CC(=O)Nc3ccccc3OC)c(=O)c3nc(C)sc23)cc1	-1	-4
COc1ccc(Cn2c(C)cc(O)c(C(c3cccc(F)c3)N3CCN(C)CC3)c2=O)cc1 (stereo not given)	14	6
CCCc1cc(=O)[nH]c(-n2nc(C)cc2NC(=O)c2ccc(Br)cc2)n1	4	1
COc1ccc(CN(Cc2cccc(C(F)(F)F)c2)Cc2nc(C(=O)NC3CC3)co2)c(OC)c1	9	5
COc1cc(N)c(Cl)cc1C(=O)NC1CCN(Cc2ccccc2)CC1	3&-1	-12&-3
CC(SCCS(N)(=O)=O)c1ccc(Cl)cc1 (stereo not given)	7	5
O=C(CCC(=O)c1cccs1)OCC(=O)c1ccc(Cl)s1	6	5
C(CC=Nc1ccccc1)=Nc1ccccc1	0&7	-9&5
c1ccc(COC2CCCN(Cc3cnc(CC4CCCC4)[nH]3)C2)nc1 (stereo not given)	-2	14
Cc1nc(-c2cccs2)sc1C(=O)OCC(=O)N1CCCCC1	-1	-4
CCCSc1nc(-c2ccc(OC)cc2)cc(-c2ccccc2OC)c1C#N	-3	-8
CN(C)c1ccc(CCCNC(=O)Cn2cccnc2=O)cc1	-3	-10
Cc1c(CN2CCC(c3cc(C(C)C)n[nH]3)CC2)c(=O)n(-c2ccccc2)n1C	16	8
CCOc1c(Br)cc(/C=N\NC(=O)COc2nc(C)c(Br)c(COC)c2C#N)cc1OC	12	20
Cc1oc(-c2cccs2)nc1CSC(C)C(C)O (stereo not given)	12	4
COc1ccccc1C1NC(=O)NC(C)=C1C(N)=O (stereo not given)	4	3
COCCCN(CC(=O)Nc1cc(C(C)(C)C)nn1-c1cccc(C)c1)C(=O)Nc1ccc(OC)cc1	11	12

Compound profiles, as listed above. Order of screens: NPYLR7 agonist | NPYLR7 agonist max-min
`C(CC=Nc1ccccc1)=Nc1ccccc1` as listed: 0&7 | -9&5
`COc1ccccc1C1NC(=O)NC(C)=C1C(N)=O` (stereo not given) as listed: 4 | 3
`c1ccc(COC2CCCN(Cc3cnc(CC4CCCC4)[nH]3)C2)nc1` (stereo not given) as listed: -2 | 14
`CC(SCCS(N)(=O)=O)c1ccc(Cl)cc1` (stereo not given) as listed: 7 | 5
`O=C(CCC(=O)c1cccs1)OCC(=O)c1ccc(Cl)s1` as listed: 6 | 5

(further entries)
SMILES	NPYLR7 agonist	NPYLR7 agonist max-min
CCCCc1ccc(C(=O)N2CCN(C(C(=O)N3CCCCC3C)C3CCCC3)CC2)cc1 (stereo not given)	6	22
COc1cc(CN2CCCC(CNC(=O)c3cccs3)C2)c(Cl)cc1O (stereo not given)	5	7
Cc1ccc(C2=NN(c3nc(-c4ccccc4)c4cc(Cl)ccc4n3)C(c3ccc(Br)cc3)C2)cc1 (stereo not given)	-8	-5
Cc1ccccc1C(=O)NC1CCN(c2ccccc2C(=O)N(C)C2CCCCC2)CC1	-5	4
Cc1nnc2n1N=CC=C(c1ccccc1)S2	5	0
CCc1noc(C(C)n2cnc3c(C)csc3c2=O)n1 (stereo not given)	13	4
COc1ccc(-c2csc(=Nc3cccc(C(C)=O)c3)n2-c2ccccc2Oc2ccccc2)cc1	-6	-10
CNc1ncc(CN(C)C(=O)[C@@H]2C[C@@H](NC(=O)c3cccs3)CN2)cn1	4	0
Cc1cc(C)n(C2CCN(C(=O)c3cc4n(n3)CCCN(C)C4)C2)n1 (stereo not given)	1	32
Cc1ccccc1CN1CCN(Cc2nccn2C)CC1	15	13
CC1CCCCN1C(=O)CSc1nnc(NC2CCCCC2)s1 (stereo not given)	-6	-9
COc1cc(NC(=O)CN2Cc3ccc(-c4cncnc4)nc3C2=O)cc(OC)c1	-13	-14
CC(NC(=O)COc1ccc(Br)cc1Br)c1ccco1 (stereo not given)	-1	1
O=C(Cn1cnc2sc3c(c2c1=O)CCC3)NCCC1=CCCCC1	7	10
CC1CN(Cc2ccccn2)Cc2cc(Cl)ccc2O1 (stereo not given)	17	12
NC(=O)c1cnc2n1CCN(C(=O)C1CCCc3c1[nH]c1ccccc31)C2 (stereo not given)	27	20
COc1ccc(OC)c(/C=C2\Oc3c(ccc4c3CN(CC3CCCO3)CO4)C2=O)c1 (stereo not given)	12	9
CC[C@H](NC(=O)c1c(C)c(-c2ccccc2)nc2ccccc12)c1ccccc1	3	0
O=C(Nc1cc(Cl)ccc1OCC(F)(F)F)C1CCCN(C(=O)C2CC2)C1 (stereo not given)	1	1
O=C1C(=O)N(CCN2CCOCC2)C(c2ccc([N+](=O)[O-])cc2)C1=C(O)c1ccc(Cl)cc1 (stereo not given)	7	14
COc1ccc(N2C(=O)CSC2c2ccc(F)cc2)cc1Cl (stereo not given)	-4	-6
CCCNC(=O)N1CCN(c2ccc(OC)cc2)C(=O)C1C (stereo not given)	5	3
CCOCCn1cnc(-c2ccccc2)c1-c1ccc2c(C)cc(=O)oc2c1	-8	-13
Cc1nc(CNS(=O)(=O)Cc2ccc(Br)cc2F)cs1	-6	-8
NC(=NO)C(c1ccccc1)c1ccccc1	-16	-21
Cc1cc2nc(NC(=O)C3(C)CCCN(C(C)C)C3)[nH]c2cc1C (stereo not given)	-1	0

Reprinted at random: 4 compounds from above, in no set order.
SMILES	NPYLR7 agonist	NPYLR7 agonist max-min
Cc1nc(CNS(=O)(=O)Cc2ccc(Br)cc2F)cs1	-6	-8
COc1ccc(N2C(=O)CSC2c2ccc(F)cc2)cc1Cl (stereo not given)	-4	-6
COc1ccc(OC)c(/C=C2\Oc3c(ccc4c3CN(CC3CCCO3)CO4)C2=O)c1 (stereo not given)	12	9
CC[C@H](NC(=O)c1c(C)c(-c2ccccc2)nc2ccccc12)c1ccccc1	3	0
